From PubChem BioAssay
rRNA inh HTS = selective bacterial rRNA inhibition in E. coli | E. coli WT GFP vs humanized-ribosome RFP mutants, fluorescence, 24 h; hits give low values; DMSO median 0, no signal -100 | GFP signal change (wild-type ribosome), % (concentration not given with the values) | hit rate 1.6% among 350,000 | AID 720706;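 active = significant combined selectivity score with lowered wild-type GFP, culture density cut under 30%, mutant RFP and density less affected; inactive = any of these conditions unmet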; note: one replicate is shown; some compounds called inactive have numbers as strong as hits
MLL AF4-AF9 inh = blocks AF4 peptide binding to human AF9; P42568; AlphaScreen, biotin-AF4 peptide binding to FLAG-AF9; inhibition, % at 10 µM; hit rate 0.47% among 350,000; AID 651704;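 active = every replicate reaching a set inhibition limit, whatever the replicate mean, cut at about 25% in these data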;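 note: 0% = plate neutral control median and 100% = total signal loss; the record names both 10 and 1 µM as test concentration; the first replicate is given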
Target sequence (P42568 whole entry, looked up): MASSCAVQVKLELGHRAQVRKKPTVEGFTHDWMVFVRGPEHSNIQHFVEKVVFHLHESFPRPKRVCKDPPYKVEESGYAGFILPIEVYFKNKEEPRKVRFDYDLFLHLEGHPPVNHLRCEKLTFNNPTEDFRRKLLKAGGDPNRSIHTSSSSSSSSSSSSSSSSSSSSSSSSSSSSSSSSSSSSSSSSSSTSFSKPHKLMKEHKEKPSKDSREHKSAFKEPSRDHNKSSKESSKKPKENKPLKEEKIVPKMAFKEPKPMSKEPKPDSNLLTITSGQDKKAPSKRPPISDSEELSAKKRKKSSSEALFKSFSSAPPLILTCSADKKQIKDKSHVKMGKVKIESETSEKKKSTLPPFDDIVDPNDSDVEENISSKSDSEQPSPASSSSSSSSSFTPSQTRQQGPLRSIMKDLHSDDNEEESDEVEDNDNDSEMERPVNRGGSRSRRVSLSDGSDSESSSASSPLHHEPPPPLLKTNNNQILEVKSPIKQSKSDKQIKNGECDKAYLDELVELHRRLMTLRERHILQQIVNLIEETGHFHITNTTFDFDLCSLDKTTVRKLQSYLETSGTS
rRNA inh HTS OD600 = second read-out of rRNA inh HTS, no call of its own (marks repeat the call); OD600 change, %; measured here: OD600 growth;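 optical density of the mix in the first replicate; 0 = DMSO median and -100 = no signal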
rRNA inh HTS RFP = recorded beside rRNA inh HTS, whose call it bears; RFP signal change, %; measured here: RFP humanized mutant strains;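 first replicate; 0 = DMSO median and -100 = no signal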
The depositor's hits bear a star; & = joins results of further samples. Only part of the results is shown; rates above refer to the full screens.

compound,rRNA inh HTS,rRNA inh HTS RFP,MLL AF4-AF9 inh,rRNA inh HTS OD600
CC(=O)N1CC(=O)N2[C@H](CO)[C@H](c3ccc(-c4cccc(C(=O)N(C)C)c4)cc3)[C@@H]2C1,6,-3.3,-2.2,8
COc1ccccc1C#Cc1ccc2c(c1)[C@@H]1[C@@H](CCN1C(=O)Cc1ccccc1)[C@H](CO)N2,-4,4.9,3.8,3
Fc1ccc(CN2[C@@H]3CNC[C@H]2C3c2ccc(-c3ccncc3)cc2)cc1 (some centres not stated),4&1,1.6&0.5,7.0&7.7,-2&1
COc1ccc(CN(C)C[C@H]2Oc3ccc(NC(=O)c4ccncc4)cc3CC(=O)N([C@H](C)CO)C[C@@H]2C)cc1,-2,-2.4,-3.7,-1
CC(C)C#Cc1ccc([C@@H]2[C@H](CO)N3C(=O)CN(C(=O)Cc4ccccc4)C[C@@H]23)cc1,-1,0.8,0.1,-6
C[C@H]1CN([C@@H](C)CO)C(=O)c2cc(-c3ccncc3)cnc2O[C@@H]1CN(C)C(=O)NC1CCCC1,0,-3.2,-3.5,7
C[C@H](NC(=O)[C@@H]1[C@@H](CO)[C@@H]2Cn3c(ccc(C4=CCCC4)c3=O)[C@@H]2N1C)c1ccccc1,-1,-2.4,1.6,-7
O=C(Cc1ccccn1)N1CC(=O)N2[C@H](C1)[C@H](c1ccc(C#CC3CCCCC3)cc1)[C@@H]2CO,1,7.8,2.8,5
COc1cccc(-c2ccc([C@@H]3[C@H](CO)N4CCCCN(Cc5cncnc5)C[C@@H]34)cc2)c1,0,3.3,-2.7,-1
Cc1noc(C)c1S(=O)(=O)Nc1ccc2c(c1)C(=O)N([C@@H](C)CO)C[C@@H](C)[C@H](CN(C)C)OCCCC[C@@H](C)O2,-1,-1.4,-6.1,4
COc1cccc(-c2ccc(C3[C@@H]4CN(Cc5cccc(F)c5)C[C@H]3N4)cc2)c1 (some centres not stated),-59&-56,-15&-12,14&22,-80&-79
N#C[C@H]1[C@H](c2ccccc2C2=CCCCC2)[C@@H](CO)N1C(=O)NC1CCCCC1,0,2.6,-1.0,-33
O=C(O)C[C@H]1C[C@@H]2c3cc(NC(=O)C4CCOCC4)ccc3O[C@@H]2[C@H](CO)O1,5,-2.6,-1.3,20
O=C(NC1CCC1)[C@H]1[C@H](CO)[C@H]2Cn3c(ccc(-c4ccccc4)c3=O)[C@@H]1N2,1,-2.3,-2.0,2
COc1ccc(CN(C)C[C@@H]2OCCCC[C@H](C)Oc3ccc(NC(=O)c4ccccc4)cc3C(=O)N([C@H](C)CO)C[C@H]2C)cc1,-2,3.0,6.2,2
COCC#Cc1ccc([C@H]2[C@@H](CO)N3C(=O)CN(C(=O)C4CC4)C[C@@H]23)cc1,1,-0.2,-6.9,10
COCC(=O)N1CC2(CCN(C(=O)c3ccccn3)CC2)c2c(n(C)c3cc(OC)ccc23)[C@H]1CO,1,-6.0,-5.9,-1
Cc1cc(C(=O)Nc2cccc3c2O[C@@H](CN(C)Cc2ccc(Oc4ccccc4)cc2)[C@@H](C)CN([C@@H](C)CO)C3=O)n(C)n1,-6,0.1,-4.6,-15
C[C@@H]1CN([C@@H](C)CO)C(=O)c2cc(NS(=O)(=O)c3cn(C)cn3)ccc2O[C@@H](C)CCCCO[C@@H]1CN(C)Cc1ccccc1,3,-3.2,-7.8,4
Cc1ccc(S(=O)(=O)Nc2ccc3c(c2)C(=O)N([C@@H](C)CO)C[C@H](C)[C@H](CN(C)C(=O)c2ccccc2)OCCCC[C@@H](C)O3)cc1,1,0.9,-0.1,-1
CCC(=O)N1Cc2cc(C(=O)N3CCN(C)CC3)nc(-c3cccc(-c4cccnc4)c3)c2[C@@H]1CCO,0,-2.7,-0.3,17
O=C(C[C@@H]1C[C@@H]2c3cc(NS(=O)(=O)c4ccc(F)cc4)ccc3O[C@@H]2[C@H](CO)O1)NCc1ccccc1F,-7,1.5,-0.4,-17
CCc1nc(N2[C@H](C#N)[C@H](c3ccccc3-c3ccccc3C)[C@H]2CO)sc1C,0,0.1,1.1,-11
COc1cccc(CN2[C@@H](CO)[C@@H](c3ccccc3)C23CN(C(=O)C2CCC2)C3)c1,-8,1.0,2.5,-4

Part of the list above in another layout.
Every second line gives: rRNA inh HTS | rRNA inh HTS RFP | MLL AF4-AF9 inh | rRNA inh HTS OD600
- O=C(NC1CCC1)[C@H]1[C@H](CO)[C@H]2Cn3c(ccc(-c4ccccc4)c3=O)[C@@H]1N2
→ 1 | -2.3 | -2.0 | 2
- COc1ccc(CN(C)C[C@@H]2OCCCC[C@H](C)Oc3ccc(NC(=O)c4ccccc4)cc3C(=O)N([C@H](C)CO)C[C@H]2C)cc1
→ -2 | 3.0 | 6.2 | 2
- COCC#Cc1ccc([C@H]2[C@@H](CO)N3C(=O)CN(C(=O)C4CC4)C[C@@H]23)cc1
→ 1 | -0.2 | -6.9 | 10
- COCC(=O)N1CC2(CCN(C(=O)c3ccccn3)CC2)c2c(n(C)c3cc(OC)ccc23)[C@H]1CO
→ 1 | -6.0 | -5.9 | -1
- Cc1cc(C(=O)Nc2cccc3c2O[C@@H](CN(C)Cc2ccc(Oc4ccccc4)cc2)[C@@H](C)CN([C@@H](C)CO)C3=O)n(C)n1
→ -6 | 0.1 | -4.6 | -15
- C[C@@H]1CN([C@@H](C)CO)C(=O)c2cc(NS(=O)(=O)c3cn(C)cn3)ccc2O[C@@H](C)CCCCO[C@@H]1CN(C)Cc1ccccc1
→ 3 | -3.2 | -7.8 | 4
- Cc1ccc(S(=O)(=O)Nc2ccc3c(c2)C(=O)N([C@@H](C)CO)C[C@H](C)[C@H](CN(C)C(=O)c2ccccc2)OCCCC[C@@H](C)O3)cc1
→ 1 | 0.9 | -0.1 | -1
- CCC(=O)N1Cc2cc(C(=O)N3CCN(C)CC3)nc(-c3cccc(-c4cccnc4)c3)c2[C@@H]1CCO
→ 0 | -2.7 | -0.3 | 17
- O=C(C[C@@H]1C[C@@H]2c3cc(NS(=O)(=O)c4ccc(F)cc4)ccc3O[C@@H]2[C@H](CO)O1)NCc1ccccc1F
→ -7 | 1.5 | -0.4 | -17

Going on with the list:
compound,rRNA inh HTS,rRNA inh HTS RFP,MLL AF4-AF9 inh,rRNA inh HTS OD600
C/C=C/c1ccc([C@@H]2[C@@H](CO)N3C(=O)CN(Cc4ccc(C)cc4)C[C@H]23)cc1,2,-5.3,3.3,3
COc1ccc(NC(=O)N2CC(=O)N3[C@H](CO)[C@H](c4ccc(-c5ccccc5)cc4)[C@@H]3C2)cc1,1,1.6,1.5,-6
COc1ccc2c3c(n(C)c2c1)[C@H](CO)N(Cc1ccc(F)cc1)CC31CN(CC2CCOCC2)C1,0,1.5,15,2
COc1cccc(C#Cc2ccc([C@H]3[C@H](CO)N4C(=O)CN(C(=O)c5ccncc5)C[C@@H]34)cc2)c1,-2,1.9,-2.2,-3
CO[C@@H]1CN(C)C(=O)c2ccc(NC(=O)c3cnccn3)cc2OC[C@@H](C)NC[C@@H]1C,5,2.1,-6.1,2
Fc1cccc(CN2[C@@H]3CNC[C@H]2C3c2ccc(-c3cccnc3)cc2)c1 (some centres not stated),-2,1.6,13,0
CCC/C=C/c1ccc(CN2C(C)C(=O)N(Cc3cn(CCOCOC)nn3)CCS2(=O)=O)cc1 (configuration not stated),0,-1.2,1.0,8
C[C@@H]1CCCCO[C@@H](CN(C)Cc2ccncc2)[C@@H](C)CN([C@H](C)CO)C(=O)c2cc(NC(=O)Nc3ccccc3)ccc2O1,-1,1.1,0.5,1
O=C(Nc1cccc(F)c1)N1CC(=O)N2[C@H](CO)[C@@H](c3ccc(-c4ccccc4F)cc3)[C@H]2C1,-7,24,0.3,-58
CCCC#Cc1ccc([C@H]2[C@H]3CN(C(=O)c4ccccn4)CC(=O)N3[C@H]2CO)cc1,4,3.4,-0.1,9
COCC(=O)N1CC(=O)N2[C@H](C1)[C@@H](c1ccc(-c3ccccc3C)cc1)[C@@H]2CO,5,-1.2,-2.6,-1
CC(C)CC#Cc1ccc([C@@H]2[C@H]3CN(C(=O)c4cnccn4)CC(=O)N3[C@H]2CO)cc1,1,0.9,0.1,-11
COc1ccc(-c2ccc([C@@H]3[C@@H](CO)N4C(=O)CN(C(=O)C5CCOCC5)C[C@@H]34)cc2)cc1,0,0.7,-0.6,12
C[C@@H]1CCCCO[C@H](CN(C)Cc2ccccc2)[C@@H](C)CN([C@@H](C)CO)C(=O)c2cc(NS(=O)(=O)c3ccc(F)cc3)ccc2O1,8,2.4,4.2,-4
N#C[C@H]1[C@@H](c2ccccc2-c2ccccc2)[C@@H](CO)N1C(=O)NC1CCCCC1,-4,2.8,-1.2,5
COc1cccc(CNC(=O)[C@@H]2[C@@H](CO)[C@@H]3Cn4c(cccc4=O)[C@H]2N3C(=O)C2CCCC2)c1,3,-2.3,-0.3,-6
O=C(Nc1ccc(F)cc1)N1CC(=O)N2[C@@H](CO)[C@H](c3ccc(-c4ccc(F)cc4)cc3)[C@@H]2C1,-56,-11,2.9,-78
CO[C@@H]1CN(C)C(=O)c2cc(NC(=O)NC3CCCC3)ccc2OC[C@@H](C)N(CC2CC2)C[C@@H]1C,5,-0.8,-2.2,4
CCC1(c2ccc(Cl)cc2)NC(=O)N(CC(=O)NC2CCCCCC2)C1=O (configuration not stated),-11,2.1,-0.1,-13
CC(C)C#Cc1ccc([C@H]2[C@H]3CN(C(=O)c4ccccn4)CC(=O)N3[C@H]2CO)cc1,2,-0.7,-0.8,-8
C/C=C/c1ccc([C@H]2[C@@H](CO)N(C(=O)CN(C)C)C23CN(C(=O)C2CC2)C3)cc1,3,-0.6,1.3,-1
C[C@@H]1CN([C@H](C)CO)C(=O)c2cc(NC(=O)Nc3ccc(C(F)(F)F)cc3)ccc2O[C@@H](C)CCCCO[C@@H]1CN(C)S(=O)(=O)c1ccc(F)cc1,-1,-5.0,-4.0,-1
O=C(CCN1CCCO1)N1CCCC(Nc2cccc(F)c2)C1 (configuration not stated),2,3.9,-1.4,9
Cc1ccc(CN2CC(=O)N3[C@H](C2)[C@H](c2ccc(Br)cc2)[C@@H]3CO)cc1,-2,-0.7,3.4,-8
CC(=O)NC[C@H]1[C@@H](c2ccc(C3=CCCCC3)cc2)[C@@H](CO)N1C(=O)C1CCC1,-3,0.3,-0.5,-7
COc1ccc2c3c([nH]c2c1)[C@H](CO)N(Cc1ccncc1)CC31CCN(CC2CCOCC2)CC1,5,0.2,9.4,13
COc1ccc2c3c([nH]c2c1)[C@H](CO)N(S(=O)(=O)c1cn(C)cn1)CC31CCN(CC2CCCCC2)CC1,0,-3.1,16,1
CN(C)C(=O)c1cccc(-c2ccc3c(c2)[C@H]2[C@H](CCN2C(=O)C2CCC2)[C@@H](CO)N3)c1,1,-3.2,6.7,3
O=C(C1CCOCC1)N1CC(=O)N2[C@H](CO)[C@H](c3ccc(C#CC4CCCC4)cc3)[C@@H]2C1,8,2.9,3.2,20
C[C@@H]1CN([C@H](C)CO)C(=O)Cc2cc(NC(=O)Cc3ccccc3)ccc2O[C@H]1CN(C)C(=O)Nc1cccc2ccccc12,-2,1.7,-1.3,-6
CN(C)C(=O)c1ccc(-c2ccc(C3[C@@H]4CN(C(=O)Cc5ccccc5)C[C@H]3N4)cc2)cc1 (some centres not stated),2&1,-0.6&-3.1,-7.9&-4.8,-1&13
O=S(=O)(c1ccccc1F)N1[C@@H]2CNC[C@H]1C2c1ccc(-c2cncnc2)cc1 (some centres not stated),7,-2.6,0.3,1
Cc1ccc(S(=O)(=O)Nc2ccc3c(c2)C(=O)N([C@H](C)CO)C[C@H](C)[C@@H](CN(C)C(=O)C2CCCCC2)OCCCC[C@H](C)O3)cc1,-5,4.4,-0.2,-16
COc1ccccc1NC(=O)N1CC(=O)N2[C@H](C1)[C@H](c1ccc(-c3cccc(C)c3)cc1)[C@@H]2CO,-3,2.0,0.6,-11
CC(C)NC[C@H]1[C@@H](c2ccc(C3=CCCC3)cc2)[C@@H](CO)N1C(=O)CC1CC1,5,3.1,2.7,1
CN(C)C(=O)c1ccc(-c2ccccc2[C@H]2[C@@H](C#N)N(C(=O)C3CCCC3)[C@@H]2CO)cc1,5,0.2,-12,7
CCS(=O)(=O)N1CC2(C1)CN(S(=O)(=O)c1ccccc1)[C@@H](CO)c1c2c2ccc(OC)cc2n1C,-5,-0.4,1.2,8
CCCC#Cc1ccc2c(c1)[C@@H]1[C@@H](CCN1S(=O)(=O)c1ccccc1)[C@@H](CO)N2C,-2,6.2,1.7,2
CN(C)CC(=O)Nc1ccc2c(c1)[C@H]1C[C@@H](CC(=O)NCc3ccncc3)O[C@@H](CO)[C@H]1O2,-1,-1.4,-0.6,-6
C[C@@H]1CCCCO[C@H](CN(C)C(=O)Nc2ccccc2)[C@@H](C)CN([C@H](C)CO)C(=O)c2cc(NC(=O)c3ccncc3)ccc2O1,2,0.2,-4.6,3
COc1ccc(-c2ccc(C3[C@H]4CNC[C@@H]3N4Cc3cc(F)ccc3F)cc2)cc1 (some centres not stated),-11,8.1,2.7,-54
CC(=O)N1CC(=O)N2[C@H](CO)[C@H](c3ccc(-c4ccc(C(=O)N(C)C)cc4)cc3)[C@@H]2C1,0,1.0,-5.3,6
CCCN1[C@@H]2c3ccc(-c4cccnc4)c(=O)n3C[C@@H]2[C@@H](CO)[C@@H]1C(=O)NC1CCCC1,-5,3.6,-0.7,-7
